Screens as filed in PubChem BioAssay.
VDR inhibitor = blocks the human vitamin D receptor | P11473 | VDR-SRC2-3 peptide fluorescence polarization, 2 h | Potency, µM, inactives show max response, negative = inhibition, most hits filed as inhibitors | hit rate 0.93% among 400,000 | AID 504847; active = well fitted inhibition curve with a large enough effect; inconclusive = small, poorly fitted or top-dose-only effect, or another doubt; inactive = no such curve, though single readings can be large or run the other way; also: series mostly up to about 120 µM
Target sequence (P11473 whole entry, looked up): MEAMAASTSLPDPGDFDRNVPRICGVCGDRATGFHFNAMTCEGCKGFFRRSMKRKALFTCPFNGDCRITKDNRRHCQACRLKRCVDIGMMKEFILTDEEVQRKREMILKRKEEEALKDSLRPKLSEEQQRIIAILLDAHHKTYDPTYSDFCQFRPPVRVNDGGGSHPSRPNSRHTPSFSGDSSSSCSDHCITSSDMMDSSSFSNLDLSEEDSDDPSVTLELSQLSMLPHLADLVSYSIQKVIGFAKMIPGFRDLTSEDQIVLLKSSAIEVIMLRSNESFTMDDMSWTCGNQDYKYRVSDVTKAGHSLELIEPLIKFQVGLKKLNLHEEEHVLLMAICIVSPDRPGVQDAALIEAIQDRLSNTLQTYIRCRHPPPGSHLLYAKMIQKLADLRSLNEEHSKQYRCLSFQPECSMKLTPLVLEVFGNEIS
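Two reagent solutions held at 4 deg C in the dark were dispensed, compounds pinned at 23 nl, and the mixture incubated 2 h at room temperature. Read-out: fluorescence polarization of VDR–SRC2-3 peptide binding.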
* marks the source's active call; other numbers are inactive results; ? = inconclusive; & = joins results of further samples; [ ] = remark or other dose. % is scaled to controls: 0 for no effect and ±100 for the full control effect; potency is read from the fitted curve at half-maximal effect.

SMILES	VDR inhibitor
CCCCc1cc(=O)oc2c3c(cc(OCC(=O)N4CCC[C@H]4C(=O)O)c12)OC(C)(C)CC3	-7%
Cc1cccc(CN2CCC(Oc3ccc(C(=O)N4CCCC4)cc3)CC2)n1	-13%
COc1ccc(C(=O)O)cc1N1C(=O)Nc2ccccc2N1O	-21%
O=C(CN1C2=NCCCN2c2ccccc21)c1ccc(Cl)cc1Cl	6%
Cc1ccc(C(=O)O)cc1NC(=O)c1ccc2c(c1)C(=O)N(c1ccc([N+](=O)[O-])cc1)C2=O	9%
COc1ccccc1OC(=O)Nc1ccc(Cl)cc1	18%
CCCCCCCCCCCCCCCC(=O)Nc1ccn(C2OC(CO)C(O)C2O)c(=O)n1 (stereo not given)	2%
O=C(O)/C=C/c1ccc(O)c(O)c1	8%&-14%
CCN(CC(=O)NCc1cccs1)C(=O)/C=C/c1cc(OC)ccc1OC	9%
Cc1ccc(-c2noc(CSc3nnc(Cc4ccccc4)n3-c3cccc(C)c3)n2)cc1	3%&-4%
C/C=C/c1ccc(OCC(=O)NCc2ccccc2OC)c(OC)c1	-2%
COc1ccccc1CNS(=O)(=O)c1ccc(N2CCCCS2(=O)=O)cc1	8%
COc1cc(NCCCNC(C)C)c2nccc(C)c2c1	4%
NC(=O)COC(=O)c1cc(S(=O)(=O)N2CCOCC2)ccc1N1CCCCC1	-9%
O=C(CSCc1ccc(F)cc1)N1CCN(c2ccc(Cl)cc2)CC1	-5%
CCN(CCCNC(=O)c1cc2cc3ccc(C)cc3nc2s1)c1ccccc1	-5%
COc1cccc(OCCn2c(-c3ccc(Br)cc3)nc3ccccc3c2=O)c1	-23%
COC(=O)c1ccccc1NC(=O)c1ccc2c(c1)CCN2S(=O)(=O)c1ccc(C)cc1	1%
O=C(NCCC1=CCCCC1)C(=O)NCc1ccncc1	2%
COc1cc(C(=O)OCc2csc(CC(=O)Nc3ccccc3C)n2)ccc1OCC(C)C	12%
O=C(CN(Cc1ccco1)C(=O)CNS(=O)(=O)c1ccc(F)cc1)NCc1ccco1	-2%
COc1ccccc1N1CCN(CCCCOc2ccc(F)cc2)CC1	-3%
CCN(c1ccccc1)S(=O)(=O)c1cccc(C(=O)O)c1	17%
COc1ccc(S(=O)(=O)NC2CCCC2)cc1Br	11%
O=C(O)c1ccc2ncc(NC(=O)c3ccc(F)cc3)c(=O)n2c1	-7%
Cc1cc(C(=O)NC2CCCN(Cc3ccc(Cl)cc3)C2)c(C)o1 (stereo not given)	0%
O=C(NCC1CCCO1)C1CC(=O)N(c2ccc(F)c(Cl)c2)C1 (stereo not given)	-4%
CN(C)c1cc(N/N=C/c2ccc(Cl)cc2)nc(N(C)C)n1	0%
O=C(CN1C2CCCC1CC(NC(=O)C1CCCCC1)C2)NCc1ccc(F)cc1 (stereo not given)	-7%
Cc1[nH]c2c(C)cccc2c1CN1CCC(CO)(Cc2ccccc2)CC1	-19%
CCCN1C(C(=O)c2ccccc2)=C(OC(=O)COc2ccc(C)cc2)c2ccccc2S1(=O)=O	6%
CC(=O)Nc1cccc(NC(=O)c2ccc(C(=O)Nc3cccc(NC(C)=O)c3)nc2)c1	-13%
COc1ccc(S(=O)(=O)N2CCOC2CNC(=O)C(=O)NCc2cccnc2)cc1OC (stereo not given)	?
COc1ccc(N2CC(C(=O)N3CCN(c4ccccc4)CC3)CC2=O)cc1 (stereo not given)	6%
O=C1NC2(CCCCC2)N=C1c1ccc(F)cc1	6%
CCCCNc1nc(-c2ccccc2)c(C(=O)OCC)cc1C#N	1%
CNC(=O)CSc1nnnn1-c1cc(C)ccc1C	-3%
O=C(Nc1ccccn1)c1cccs1	-12%
Cc1ccc(S(=O)(=O)c2nnn3c2nc(NCc2ccc4c(c2)OCO4)c2sccc23)cc1C	3%
CCOC(=O)N1CCN(C(=O)c2cc(COc3ccc(F)cc3F)on2)CC1	-3%
COc1ccc(S(=O)(=O)n2ccc(-c3cnc(-c4ccccc4)s3)n2)cc1	-4%
COC(=O)N1CCN(c2ccc(OC)cc2)CC1	17%
Cc1nn2c(=O)c(NC(=O)c3ccc(F)cc3)cnc2s1	3%
COc1ccc(-c2csc(NC(=S)NC(=O)c3ccc4ccccc4c3)n2)cc1OC	?
CCC(CC)c1nc2ccccc2c(=O)[nH]1	-11%
Cc1ccc2ccc3c(c2n1)NS(=O)(=O)c1ccccc1-3	-4%
CCCCNc1ccc(C(CC(N)=O)NC(=O)c2ccccc2)cc1[N+](=O)[O-] (stereo not given)	-2%
COc1ccc(C(=O)c2sc(NC(C)C)nc2N)cc1OC	-3%
Cc1ccc(C23OCCN2CCn2nc4ccccc4c23)cc1 (stereo not given)	-9%
CC(C)OCCCNc1ncc2c(n1)CC(c1ccc(N(C)C)cc1)CC2=O (stereo not given)	31%[activator]
(listing goes on)
SMILES	VDR inhibitor
O=C(C1CCCN(S(=O)(=O)c2cc(Cl)ccc2Cl)C1)N1CCCCCC1 (stereo not given)	?
c1ccc(Oc2ncnc3sccc23)cc1	-4%
COc1ccc(Cc2nc3ccc(S(=O)(=O)N4CCOCC4)cc3[nH]2)cc1	-10%
CCCCC(=O)Nc1nnc(-c2ccc(OC)cc2)s1	-1%
CCN(CC)C(=O)c1c(NC(=O)c2ccccc2F)sc2c1CCC(C(C)(C)C)C2 (stereo not given)	-10%
CCOc1cc(C(=O)NCC2CCCO2)cc(OCC)c1OCC (stereo not given)	17%
NCCN(Cc1ccc(Cl)c(Cl)c1)c1ccc(Br)cn1	7%
Cc1cc(NC(=O)c2cc(-c3ccc(C)c(C)c3)nc3ccccc23)no1	-5%
CCN(Cc1ccccc1)C(=O)COC(=O)c1cc(=O)[nH]c2ccccc12	-7%
CNc1nc(N)c(C(=O)Nc2cc(C)on2)s1	2%
COc1ccc(-c2nnc(-c3cc(OC)c(OC)c(OC)c3)o2)cc1OC	-2%
Cc1ccc(NC(=O)CNCc2ccc(Cl)cc2Cl)cc1S(=O)(=O)N(C)C	?
O=C(CCS(=O)(=O)c1ccccc1)N(CCCN1CCOCC1)c1nc2ccccc2s1	?
O=C(O)C(=O)/C(=C\c1ccsc1)c1ccc2ccccc2n1	-11%
Cc1ccc(OCCC(=O)OCC(=O)NCCc2ccc(Cl)cc2)cc1	-4%
CCCCCNC(=O)c1ccccc1SC	1%
Cc1nc(N(C)Cc2ccccc2)c2c(C)c(C)sc2n1	25%
CCC1CCCCN1C(=O)Cn1c(=O)cc(C(F)(F)F)c2c(C)nn(C)c21 (stereo not given)	-2%
COc1ccc(NC(=O)Cc2c(F)c(F)c(F)c(F)c2F)cc1OC	18%
CCOc1ccccc1NC(=O)Nc1ccc(Br)cc1C	3%
COc1ccc(NC(=O)CC2SC(=N)N(c3ccccc3)C2=O)c(OC)c1 (stereo not given)	7%
N#Cc1c(-c2ccc(F)cc2)cc(-c2cccs2)nc1SCC(=O)O	4%
COc1ccc(C)cc1S(=O)(=O)NCC(c1ccc2c(c1)OCO2)N1CCOCC1 (stereo not given)	7%
CCOc1ccccc1NC(=O)CSc1nc(=O)n(Cc2ccccn2)c2c1CCC2	-3%
CC(C(=O)NC1CC(C)(C)NC(C)(C)C1)c1ccc([N+](=O)[O-])cc1 (stereo not given)	2%
Cc1cc(O)cc2c1C1CCC3(C)C(=O)CCC3C1C=C2 (stereo not given)	21%
CC[C@]12C(=O)N(C)C[C@H]([C@@H]3C(=O)N(C)C(=O)[C@@H]31)N2C(=O)c1ccc(C(C)(C)C)cc1	-11%
COCCNC(=O)c1ccccc1NC(=O)c1cc(OC)cc(OC)c1	8%
C=CC[C@H]1C=C[C@@H](C(C(=O)OC)C(=O)OC)CN1C(C)=O	?
Cc1nc(Cl)sc1C(=O)Nc1cccc2ccccc12	-11%
CCOC(=O)C1=C(c2ccccc2)NC(=O)NC1c1cc(OC)c(OC)c(OC)c1 (stereo not given)	6%
COc1ccc(OC)c(NC(=O)Cn2c(=O)n(CC(=O)NCc3ccco3)c(=O)c3ccccc32)c1	11%
ON=Cc1cccn1-c1ccccc1	-11%
OCC1(CCc2ccccc2)CCCN(CCCc2ccccc2)C1 (stereo not given)	-7%
c1ccc(C2OCC3(CO2)COC(c2ccccc2)OC3)cc1 (stereo not given)	2%
COc1ccc(C(CNC(=O)c2cccc(S(=O)(=O)N3CCCC3)c2)N2CCCC2)cc1 (stereo not given)	3%
CC(=O)NC(Cc1ccc(F)cc1)C(=O)N1CCN(C(=O)NCc2ccccc2)CC1 (stereo not given)	0%
Clc1ncc(Cn2cccn2)s1	6%
N#Cc1ccccc1S(=O)(=O)N1CCN(C(=O)CCNS(=O)(=O)c2ccc(Cl)cc2)CC1	8%
COc1ccc(-c2cc(C)no2)cc1S(=O)(=O)N1CCOc2ccccc21	-17%&7%
Cc1ccc(CNC(=O)c2ccc(Cn3c(=O)c4ccccc4n(CC(=O)Nc4c(C)cc(C)cc4C)c3=O)cc2)cc1	-20%
CCN(CC)S(=O)(=O)c1cc(C(=O)OCC(=O)Nc2ccc(-c3nc4ccc(C)cc4s3)cc2)ccc1F	10%
Cc1ccc(C(C(=O)NC2CCCCC2)N2CCCC2)cc1 (stereo not given)	-18%
O=C(NCCSCc1c(F)cccc1Cl)Nc1ccccc1	-1%
COc1ccc(/C=C/C(=O)c2cc3cccc(OC)c3oc2=O)cc1	?
c1ccc(-n2ncc3c2ncn2nc(-c4ccco4)nc32)cc1	13%
Nc1[nH]n(-c2ccccc2)c(=O)c1N=Nc1ccccc1	8%
CC(C)OCCCN1CC(=O)N2C(c3cccc([N+](=O)[O-])c3)c3[nH]c4ccccc4c3C[C@H]2C1=O (stereo not given in full)	-18%
CCCCC(=O)N1C/C=C\C(c2ccc(OC)cc2)N(Cc2ccc(F)cc2)C(=O)[C@H]1Cc1ccccc1 (stereo not given in full)	-13%
CCn1c(SCC(=O)NC2CC2)nnc1-c1ccc(OC)cc1	-21%
(further entries)
SMILES	VDR inhibitor
CC1CCCCN1C(=O)CN(C)S(=O)(=O)c1cccc2nsnc12 (stereo not given)	-3%
O=C(NCc1ccccc1)c1nc[nH]c1C(=O)N1CCN(c2ccccc2)CC1	-5%
c1ccc(-c2cn3c(n2)CCC3)cc1	2%
Cc1ccc(Cn2c(C(=O)O)c(CNCc3ccc(C)o3)c3ccc(C)cc32)cc1	-4%
Cc1cccc(N2CCN(S(=O)(=O)c3c(C)nc4scc(C)n4c3=O)CC2C)c1 (stereo not given)	3%&0%
Cc1ccc(-c2cc(Cc3ccc(F)cc3)c(=O)[nH]n2)cc1	-1%
O=C(Nc1ccncc1)c1cc(F)cc(F)c1	-5%
CCC(=O)Nc1sc2c(c1C#N)CCCCC2	4%
O=C(Cc1cccc2ccccc12)Nc1ccccc1C(=O)O	-5%
CCN1CCC(NC(=O)Nc2ccc(F)cc2)CC1	5%
COc1ccc(-c2noc(CCC(=O)NCCCN3CCN(c4ccccc4F)CC3)n2)cc1	9%
COc1cc(NC(=O)COc2ccc(Cl)cc2)ccc1-c1cc2ccccc2oc1=O	-19%
O=C(CN1CCN(Cc2ccc(Cl)cc2)CC1)N1CCc2ccccc21	-4%
CC1(C)CC(=O)C(C=NC2CC(C)(C)NC(C)(C)C2)=C(O)C1	12%
O=C(Cn1nnc2ccccc2c1=O)Nc1cc(C(F)(F)F)ccc1N1CCOCC1	5%
CC(C)c1ccc(NC(=S)NN2C(C)CCCC2C)cc1 (stereo not given)	7%
CC(=O)c1cccc(NC(=O)NC(C)c2ccncc2)c1 (stereo not given)	15%
CCOC(=O)CNC(=O)CSc1nc(N(C)C)nc(N2CCOCC2)n1	12%
O=C(Cc1ccccc1)Nc1ccc2oc(-c3ccncc3)nc2c1	20%
O=C(COc1ccc(S(=O)(=O)Nc2ccccc2)cc1)NCc1ccccn1	-6%
Cc1cc(OC(F)F)ccc1NC(=O)Nc1ccc([N+](=O)[O-])cc1	3%
COC(=O)c1ccc(NC(=O)CN(CCc2ccccc2)S(=O)(=O)c2ccc(OC)cc2)cc1	-16%
COc1ccc(C)cc1NC(=O)CCNS(=O)(=O)c1cccc(C(F)(F)F)c1	14%
COc1cc(NC(=O)COC(=O)CNC(=O)c2ccc(Cl)cc2)c(C)cc1[N+](=O)[O-]	-6%
CCN(C(=O)c1cccnc1SC)C12CC3CC(CC(C3)C1)C2	18%
C=C1CCN(C(CC(C)C)C(=O)NCc2ccc(Cl)cc2)S(=O)(=O)c2ccccc21 (stereo not given)	2%
Cn1c(N)nc2ccccc2c1=O	16%

17 of these compounds in another layout:
mol | VDR inhibitor
CCC(=O)Nc1sc2c(c1C#N)CCCCC2 | 4%
O=C(Cc1cccc2ccccc12)Nc1ccccc1C(=O)O | -5%
CCN1CCC(NC(=O)Nc2ccc(F)cc2)CC1 | 5%
COc1ccc(-c2noc(CCC(=O)NCCCN3CCN(c4ccccc4F)CC3)n2)cc1 | 9%
COc1cc(NC(=O)COc2ccc(Cl)cc2)ccc1-c1cc2ccccc2oc1=O | -19%
O=C(CN1CCN(Cc2ccc(Cl)cc2)CC1)N1CCc2ccccc21 | -4%
CC1(C)CC(=O)C(C=NC2CC(C)(C)NC(C)(C)C2)=C(O)C1 | 12%
O=C(Cn1nnc2ccccc2c1=O)Nc1cc(C(F)(F)F)ccc1N1CCOCC1 | 5%
CC(C)c1ccc(NC(=S)NN2C(C)CCCC2C)cc1 (stereo not given) | 7%
CC(=O)c1cccc(NC(=O)NC(C)c2ccncc2)c1 (stereo not given) | 15%
CCOC(=O)CNC(=O)CSc1nc(N(C)C)nc(N2CCOCC2)n1 | 12%
O=C(Cc1ccccc1)Nc1ccc2oc(-c3ccncc3)nc2c1 | 20%
O=C(COc1ccc(S(=O)(=O)Nc2ccccc2)cc1)NCc1ccccn1 | -6%
Cc1cc(OC(F)F)ccc1NC(=O)Nc1ccc([N+](=O)[O-])cc1 | 3%
COC(=O)c1ccc(NC(=O)CN(CCc2ccccc2)S(=O)(=O)c2ccc(OC)cc2)cc1 | -16%
COc1ccc(C)cc1NC(=O)CCNS(=O)(=O)c1cccc(C(F)(F)F)c1 | 14%
COc1cc(NC(=O)COC(=O)CNC(=O)c2ccc(Cl)cc2)c(C)cc1[N+](=O)[O-] | -6%

Not all compounds are listed; the hit share may differ from the screen's.
